From PubChem BioAssay
AF4-AF9 inh: inhibitors of AF4 peptide binding to AF9, primary screen, biochemical, AlphaScreen, biotin-AF4 peptide, FLAG-AF9, single point | hit rate 0.47% among 350,000 | inhibition, % at 10 µM | Protein AF-9 (Homo sapiens), P42568 | AID 651704, 2012;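 active = every replicate reaching a set inhibition limit, whatever the replicate mean, cut at about 25% in these data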;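 also: 0% = plate neutral control median and 100% = total signal loss; the record names both 10 and 1 µM as test concentration; the first replicate is given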
Target sequence (P42568 whole entry, looked up): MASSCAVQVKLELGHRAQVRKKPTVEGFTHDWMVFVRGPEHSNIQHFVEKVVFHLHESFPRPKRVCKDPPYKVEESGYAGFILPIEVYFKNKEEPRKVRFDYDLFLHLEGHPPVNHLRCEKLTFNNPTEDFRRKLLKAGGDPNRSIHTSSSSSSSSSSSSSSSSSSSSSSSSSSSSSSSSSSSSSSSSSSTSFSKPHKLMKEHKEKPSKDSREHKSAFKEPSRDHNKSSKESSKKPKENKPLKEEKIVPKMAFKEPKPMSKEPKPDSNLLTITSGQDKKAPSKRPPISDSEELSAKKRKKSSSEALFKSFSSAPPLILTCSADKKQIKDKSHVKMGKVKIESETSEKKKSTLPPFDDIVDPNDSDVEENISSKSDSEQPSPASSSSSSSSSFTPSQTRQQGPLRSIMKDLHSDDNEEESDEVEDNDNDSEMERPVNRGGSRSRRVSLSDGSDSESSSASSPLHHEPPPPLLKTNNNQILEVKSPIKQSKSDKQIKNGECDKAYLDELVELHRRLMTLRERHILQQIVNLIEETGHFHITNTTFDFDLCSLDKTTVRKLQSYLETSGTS
* marks the source's active call; other numbers are inactive results; & = joins results of further samples.

Results for C[C@@H]1CN([C@@H](C)CO)C(=O)c2cccc(N(C)C)c2O[C@H]1CN(C)S(=O)(=O)c1cccs1 ?
AF4-AF9 inh: -0.5

What do the screens show for `O=C(Nc1cc(F)ccc1F)N[C@@H]1C=C[C@H](CC(=O)N2CCc3ccccc3C2)O[C@H]1CO`?
AF4-AF9 inh: -1.3

How did CC(C)(C)c1ccc(CC(=O)N2CCC2(C)C(=O)N2CCCCC2)cc1 (centres undefined) do in these assays?
AF4-AF9 inh: 0.4

How did C[C@H](CO)N1C[C@H](C)[C@H](CN(C)S(=O)(=O)c2cn(C)cn2)Oc2c(NS(=O)(=O)c3ccc(F)cc3)cccc2C1=O do in these assays?
AF4-AF9 inh: 1.2

How did Cc1cc(C)cc(NC(=O)COC(=O)CCC2CCCC2)c1 do in these assays?
AF4-AF9 inh: -1.7

What do the screens show for `O=C(N[C@H]1CC[C@@H](CCn2cc(-c3ccccc3)nn2)O[C@H]1CO)c1cnccn1`?
AF4-AF9 inh: -0.9

What do the screens show for `O=C(Nc1ccccc1)N1CC(=O)N2[C@H](C1)[C@@H](c1ccc(C#Cc3cccnc3)cc1)[C@@H]2CO`?
AF4-AF9 inh: -2.0

Results for CCCN(C)C1CN(Cc2cn(CCCC(=O)OC)nn2)S(=O)(=O)C1 (centres undefined) ?
AF4-AF9 inh: -1.6

How did COC(=O)[C@@]12C[C@@H](CC(=O)N3CCCC3)C(=O)N(Cc3cccc4ccccc34)C1=CCC(C)(C)C2 do in these assays?
AF4-AF9 inh: 5.4

What do the screens show for `C[C@@H]1CN([C@@H](C)CO)C(=O)Cc2cc(NS(=O)(=O)c3cn(C)cn3)ccc2O[C@H]1CN(C)Cc1ccc(Oc2ccccc2)cc1`?
AF4-AF9 inh: 18

Results for C[C@@H]1CN([C@H](C)CO)C(=O)c2cc(-c3cccc(C#N)c3)cnc2O[C@H]1CN(C)C(=O)C1CCC1 ?
AF4-AF9 inh: -1.2

How did O=C(Nc1ccc(Cl)cc1)N[C@H]1CC[C@H](CCn2cc(Cc3ccccc3)nn2)O[C@@H]1CO do in these assays?
AF4-AF9 inh: 1.0

Results for COc1ccccc1NC(=O)N[C@H]1CC[C@H](CCn2cc(-c3ccccc3)nn2)O[C@@H]1CO ?
AF4-AF9 inh: 1.1

How did CS(=O)(=O)c1ccc(C(=O)OCC(=O)N2CCOCC2)cc1[N+](=O)[O-] do in these assays?
AF4-AF9 inh: -4.3

How did O=C(c1ccncc1)N1C[C@@H]2[C@H](c3ccccc31)[C@H](CO)N2C(=O)c1ccccn1 do in these assays?
AF4-AF9 inh: -2.7

Results for C[C@@H]1CN([C@H](C)CO)C(=O)c2cc(NC(=O)Nc3ccc(F)cc3)ccc2O[C@@H]1CN(C)Cc1ccc(C(F)(F)F)cc1 ?
AF4-AF9 inh: 1.7

How did O=C(NCCC1=CCCCC1)c1[nH]c(C(F)(F)F)nc1-c1ccccc1 do in these assays?
AF4-AF9 inh: -1.3

Results for CO[C@H]1CN(C)C(=O)c2ccc(NC(=O)c3ccc4c(c3)OCO4)cc2OC[C@@H](C)N(CCC(F)(F)F)C[C@@H]1C ?
AF4-AF9 inh: 0.8

What do the screens show for `C[C@@H]1CCCCO[C@H](CN(C)Cc2ccc3c(c2)OCO3)[C@@H](C)CN([C@H](C)CO)C(=O)c2cc(NS(C)(=O)=O)ccc2O1`?
AF4-AF9 inh: -3.3

What do the screens show for `CC1(C(=O)NS(=O)(=O)c2ccc(Cl)s2)CCN1C(=O)Cc1ccc(-c2ccccc2)cc1` (centres undefined)?
AF4-AF9 inh: 1.2

How did CCCNC(=O)C[C@@H]1CC[C@@H]2[C@@H](COc3ccc(NC(=O)Nc4cccc(C)c4)cc3C(=O)N2C)O1 do in these assays?
AF4-AF9 inh: 3.3

What do the screens show for `CN(C)C(=O)c1ccc(-c2ccc(C3[C@H]4CNC[C@@H]3N4C(=O)Nc3cccc(Cl)c3)cc2)cc1` (some centres undefined)?
AF4-AF9 inh: 4.5

What do the screens show for `O=C1CN(S(=O)(=O)Cc2ccccc2)C[C@H]2[C@H](c3ccc(C#Cc4ccc(F)cc4)cc3)[C@@H](CO)N12`?
AF4-AF9 inh: -2.3

How did CCNC(=O)C[C@@H]1CC[C@@H]2[C@H](COC[C@H](O)CN2Cc2ccccc2F)O1 do in these assays?
AF4-AF9 inh: 0.3

How did C[C@H](CO)N1C[C@H](C)[C@H](CN(C)C(=O)Nc2ccccc2)Oc2c(NC(=O)c3ccc(-c4nccs4)cc3)cccc2C1=O do in these assays?
AF4-AF9 inh: -1.9

Results for N#C[C@@H]1[C@H](c2ccccc2/C=C/c2ccccc2)[C@H](CO)N1S(=O)(=O)c1ccc(F)cc1 ?
AF4-AF9 inh: 2.0

How did Cc1ccc(S(=O)(=O)N[C@@H]2CC[C@@H](CC(=O)NCc3ccccc3F)O[C@@H]2CO)cc1 do in these assays?
AF4-AF9 inh: -5.6

How did C[C@@H]1CN([C@@H](C)CO)S(=O)(=O)c2ccc(C#Cc3ccccn3)cc2O[C@@H]1CN(C)Cc1cccc(F)c1 do in these assays?
AF4-AF9 inh: -0.4

What do the screens show for `C[C@@H]1CN([C@H](C)CO)C(=O)c2cccc(NC(=O)Nc3ccccc3)c2O[C@@H]1CN(C)S(=O)(=O)c1cn(C)cn1`?
AF4-AF9 inh: -1.1

What do the screens show for `C[C@@H]1CN([C@H](C)CO)C(=O)c2cccc(NC(=O)Nc3ccc(F)cc3)c2O[C@H]1CN(C)Cc1ccc(Cl)c(Cl)c1`?
AF4-AF9 inh: 1.5

What do the screens show for `COc1cccc(C(C)(O)c2nc(-c3cccc(F)c3)cs2)c1` (centres undefined)?
AF4-AF9 inh: -5.7

How did CCCN(C)C[C@H]1Oc2cc(/C=C/c3ccccc3)ccc2S(=O)(=O)N([C@@H](C)CO)C[C@H]1C do in these assays?
AF4-AF9 inh: 16

How did CO[C@H]1CN(C)C(=O)c2cc(NC(C)=O)ccc2OC[C@H](C)N(Cc2ccccn2)C[C@H]1C do in these assays?
AF4-AF9 inh: 3.0

Results for C[C@@H]1CCCCO[C@H](CN(C)Cc2ccccc2)[C@@H](C)CN([C@H](C)CO)C(=O)c2cc(NC(=O)NC3CCCCC3)ccc2O1 ?
AF4-AF9 inh: -0.9

Results for [N-]=[N+]=Nc1ccccc1C[C@@]1(C(=O)NCCN2CCOCC2)N=C(c2ccc(OCCCO)cc2)O[C@@H]1c1ccccc1N=[N+]=[N-] ?
AF4-AF9 inh: 13

What do the screens show for `COCC(=O)Nc1ccc2c(c1)C(=O)N(C)C[C@H](OC)[C@H](C)CN(C(=O)Cc1ccccn1)[C@@H](C)CO2`?
AF4-AF9 inh: 0.7

How did C[C@@H]1CN([C@@H](C)CO)C(=O)c2cc(C3=CCCC3)cnc2O[C@@H]1CN(C)S(=O)(=O)c1cn(C)cn1 do in these assays?
AF4-AF9 inh: -7.5

Results for C[C@H]1CN([C@@H](C)CO)C(=O)c2cc(NC(=O)Nc3ccc(C(F)(F)F)cc3)ccc2O[C@H]1CN(C)Cc1ccc(C(=O)O)cc1 ?
AF4-AF9 inh: -0.7

Results for O=C(NCC[C@H]1CC[C@H](NC(=O)C2CCCC2)[C@H](CO)O1)c1cnccn1 ?
AF4-AF9 inh: 0.0

How did N#C[C@@H]1[C@H](c2ccccc2)[C@@H](CO)N1C(=O)CCN1CCCCC1 do in these assays?
AF4-AF9 inh: 0.0

How did O=C(Nc1ccccc1F)N1CC(=O)N2[C@H](C1)[C@@H](c1ccc(C#CC3CC3)cc1)[C@@H]2CO do in these assays?
AF4-AF9 inh: 1.9

Results for C[C@@H]1CN([C@@H](C)CO)C(=O)c2cc(NC(=O)Nc3cccc4ccccc34)ccc2O[C@@H]1CN(C)Cc1ccc2c(c1)OCO2 ?
AF4-AF9 inh: -0.8

What do the screens show for `O=C(NCc1ccccc1)c1cc(C2CCCN(C(=O)c3cccs3)C2)on1` (centres undefined)?
AF4-AF9 inh: -2.5

How did C[C@@H]1CCCCO[C@@H](CN(C)S(=O)(=O)c2cccs2)[C@@H](C)CN([C@@H](C)CO)C(=O)c2cc(NC(=O)CCCN(C)C)ccc2O1 do in these assays?
AF4-AF9 inh: 0.5

How did COCC(=O)Nc1ccc2c(c1)C(=O)N(C)C[C@@H](OC)[C@H](C)CN(C(=O)c1cnccn1)[C@@H](C)CO2 do in these assays?
AF4-AF9 inh: -0.5

What do the screens show for `C[C@@H]1CN([C@H](C)CO)C(=O)c2cc(C#CC3(O)CCCC3)cnc2O[C@@H]1CN(C)Cc1ccccc1`?
AF4-AF9 inh: -4.7

Results for C[C@@H]1CN([C@@H](C)CO)C(=O)c2cc(NC(=O)Nc3cccc4ccccc34)ccc2O[C@@H](C)CCCCO[C@@H]1CN(C)C(=O)c1ccccc1 ?
AF4-AF9 inh: -1.7

Results for COc1ccccc1CNC(=O)C[C@@H]1C[C@@H]2c3cc(NC(=O)c4ccc5c(c4)OCO5)ccc3O[C@@H]2[C@H](CO)O1 ?
AF4-AF9 inh: 5.2

Results for CCOC(=O)c1c(Nc2ccc(OC)cc2)n[nH]c1C ?
AF4-AF9 inh: 1.5

What do the screens show for `Cc1cc(C(=O)Nc2cccc3c2O[C@H](CN(C)Cc2ccc(-c4ccccc4)cc2)[C@@H](C)CN([C@@H](C)CO)C3=O)n(C)n1`?
AF4-AF9 inh: -3.5

How did O=C(C[C@@H]1C[C@@H]2c3cc(NC(=O)c4cccnc4)ccc3O[C@@H]2[C@@H](CO)O1)NCc1cc(F)ccc1F do in these assays?
AF4-AF9 inh: 6.7

Results for Cc1noc(C)c1NC(=O)Nc1ccc2c(c1)C(=O)N([C@@H](C)CO)C[C@H](C)[C@H](CN(C)S(=O)(=O)c1ccc(F)cc1)OCCCC[C@@H](C)O2 ?
AF4-AF9 inh: -1.7

Results for Cc1noc(C)c1NC(=O)N(C)C[C@H]1Oc2ccc(NC(=O)C3CC3)cc2CC(=O)N([C@@H](C)CO)C[C@@H]1C ?
AF4-AF9 inh: -2.4

How did O=C([C@@H]1[C@@H](CO)[C@@H]2Cn3c(cccc3=O)[C@H]1N2C(=O)c1ccccc1)N1CCCCC1 do in these assays?
AF4-AF9 inh: -0.9

What do the screens show for `COc1ccccc1S(=O)(=O)N(C)C[C@H]1Oc2cc(Br)ccc2S(=O)(=O)N([C@@H](C)CO)C[C@H]1C`?
AF4-AF9 inh: 3.0&0.8

What do the screens show for `O=C(C[C@@H]1CC[C@H]2[C@@H](COC[C@H](O)CN2C(=O)Nc2ccc(Cl)c(Cl)c2)O1)NCc1ccc(F)cc1`?
AF4-AF9 inh: -0.1

What do the screens show for `O=C(C[C@H]1CC[C@H]2[C@@H](COC[C@H](O)CN2C(=O)c2ccccc2F)O1)N1CCCCC1`?
AF4-AF9 inh: 0.7

Results for Cc1cc(C(=O)Nc2cccc3c2O[C@@H](CN(C)Cc2ccc(C(F)(F)F)cc2)[C@H](C)CN([C@H](C)CO)C3=O)n(C)n1 ?
AF4-AF9 inh: 3.1

Results for CCCNC(=O)[C@@H]1[C@@H](CO)[C@@H]2Cn3c(ccc(-c4ccccc4F)c3=O)[C@@H]2N1C ?
AF4-AF9 inh: -3.0

Results for C[C@H]1CN([C@@H](C)CO)C(=O)c2cc(NS(=O)(=O)c3ccc(Cl)cc3)ccc2O[C@H]1CN(C)C ?
AF4-AF9 inh: -5.7

A draw from above in order of SMILES length, falling:
Results for Cc1cc(C(=O)Nc2cccc3c2O[C@@H](CN(C)Cc2ccc(C(F)(F)F)cc2)[C@H](C)CN([C@H](C)CO)C3=O)n(C)n1 ?
AF4-AF9 inh: 3.1

Results for COc1ccccc1CNC(=O)C[C@@H]1C[C@@H]2c3cc(NC(=O)c4ccc5c(c4)OCO5)ccc3O[C@@H]2[C@H](CO)O1 ?
AF4-AF9 inh: 5.2

How did O=C(C[C@@H]1C[C@@H]2c3cc(NC(=O)c4cccnc4)ccc3O[C@@H]2[C@@H](CO)O1)NCc1cc(F)ccc1F do in these assays?
AF4-AF9 inh: 6.7

What do the screens show for `COc1ccccc1S(=O)(=O)N(C)C[C@H]1Oc2cc(Br)ccc2S(=O)(=O)N([C@@H](C)CO)C[C@H]1C`?
AF4-AF9 inh: 3.0&0.8

How did O=C([C@@H]1[C@@H](CO)[C@@H]2Cn3c(cccc3=O)[C@H]1N2C(=O)c1ccccc1)N1CCCCC1 do in these assays?
AF4-AF9 inh: -0.9

Results for CCCNC(=O)[C@@H]1[C@@H](CO)[C@@H]2Cn3c(ccc(-c4ccccc4F)c3=O)[C@@H]2N1C ?
AF4-AF9 inh: -3.0

Results for CCOC(=O)c1c(Nc2ccc(OC)cc2)n[nH]c1C ?
AF4-AF9 inh: 1.5

The main list resumes, repeating the 2 entries before the break.
Results for CCCNC(=O)[C@@H]1[C@@H](CO)[C@@H]2Cn3c(ccc(-c4ccccc4F)c3=O)[C@@H]2N1C ?
AF4-AF9 inh: -3.0

Results for C[C@H]1CN([C@@H](C)CO)C(=O)c2cc(NS(=O)(=O)c3ccc(Cl)cc3)ccc2O[C@H]1CN(C)C ?
AF4-AF9 inh: -5.7

How did C[C@@H]1CN([C@@H](C)CO)S(=O)(=O)c2ccc(C#CCN(C)C)cc2O[C@@H]1CN(C)S(=O)(=O)c1cccc(F)c1 do in these assays?
AF4-AF9 inh: -0.4

Results for O=C(C[C@@H]1CC[C@H]2[C@@H](COC[C@H](O)CN2C(=O)Nc2ccc(F)cc2)O1)NCC1CC1 ?
AF4-AF9 inh: 1.6

How did C[C@@H]1CCCCO[C@@H](CN(C)Cc2ccc(C(=O)O)cc2)[C@@H](C)CN([C@@H](C)CO)C(=O)c2cc(NC(=O)Cc3ccccc3)ccc2O1 do in these assays?
AF4-AF9 inh: -1.3

What do the screens show for `C[C@H](CO)N1C[C@H](C)[C@H](CN(C)C(=O)CN(C)C)Oc2ncc(-c3ccccc3F)cc2C1=O`?
AF4-AF9 inh: -3.4

Some of the compounds tested; count on the stated rates, not on these rows.
